VDR inh: blocks the human vitamin D receptor. VDR-SRC2-3 peptide fluorescence polarization, 2 h. Potency, µM, for the others: max response, negative = inhibition, usual class: inhibitors. 400,000 tested, 0.93% active; active means well fitted inhibition curve with a large enough effect; inconclusive means small, poorly fitted or top-dose-only effect, or another doubt; inactive means no such curve, though single readings can be large or run the other way; further: series mostly up to about 120 µM
Target sequence (P11473 whole entry, looked up): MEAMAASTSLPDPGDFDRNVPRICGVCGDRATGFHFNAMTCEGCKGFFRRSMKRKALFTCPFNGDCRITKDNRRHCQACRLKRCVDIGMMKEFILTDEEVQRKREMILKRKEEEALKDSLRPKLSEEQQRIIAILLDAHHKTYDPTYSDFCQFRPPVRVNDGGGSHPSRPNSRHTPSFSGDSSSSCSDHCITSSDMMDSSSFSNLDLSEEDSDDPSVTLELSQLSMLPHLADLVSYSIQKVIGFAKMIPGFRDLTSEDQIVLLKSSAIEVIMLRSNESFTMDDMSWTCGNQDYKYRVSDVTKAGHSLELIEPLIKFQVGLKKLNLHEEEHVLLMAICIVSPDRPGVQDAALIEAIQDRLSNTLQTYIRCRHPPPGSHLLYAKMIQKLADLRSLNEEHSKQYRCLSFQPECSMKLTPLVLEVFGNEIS
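VDR–SRC2-3 interaction, FP format. Cmpds 23 nl via pintool, brief spin, 2 h ambient incubation.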
Numbers without * were called inactive; & = joins results of further samples; [ ] = remark or other dose. On the % scale 0 is the no-effect control and ±100 the full control effect; potency means the concentration at half of the fitted maximal effect.

Start of the listing, in advance (two entries):
How did O=C(COC(=O)C12CC3CC(CC(Br)(C3)C1)C2)NNC(=O)c1ccccc1 do in these assays?
VDR inh: -4.7%

What do the screens show for `COC(F)(C(=O)Nc1ccc2c(c1)C(=O)NC2=O)C(F)(F)F` (stereo not given)?
VDR inh: -0.9%

The listing, from the start:
How did O=C(COC(=O)C12CC3CC(CC(Br)(C3)C1)C2)NNC(=O)c1ccccc1 do in these assays?
VDR inh: -4.7%

What do the screens show for `COC(F)(C(=O)Nc1ccc2c(c1)C(=O)NC2=O)C(F)(F)F` (stereo not given)?
VDR inh: -0.9%

How did C/C(=N\NC(=O)CN(c1ccccc1Br)S(C)(=O)=O)c1cccs1 do in these assays?
VDR inh: 3.9%

Results for Cc1ccc(/C(O)=C2/C(=O)C(=O)OC2c2ccc(Cl)cc2)cc1 (stereo not given) ?
VDR inh: inconclusive

What do the screens show for `O=C(/C=C\N1CCOCC1)c1ccc(Br)cc1`?
VDR inh: -24.4%

What do the screens show for `Cc1ccc(-c2cnn(-c3cccc([N+](=O)[O-])c3)c2N)cc1`?
VDR inh: 7.4%

Results for O=C1C(Cl)=C(Nc2ccc(F)cc2)C(=O)N1CCc1ccccc1 ?
VDR inh: -11.1%

What do the screens show for `CCOc1ccc(OCCOC(=O)CN(C)S(=O)(=O)c2ccc(NC(C)=O)cc2)cc1`?
VDR inh: 5.6%

Results for COc1ccc(-n2c(COc3cccc4ccccc34)nnc2SCC#N)cc1 ?
VDR inh: -22.3%

What do the screens show for `O=C(O)c1ccccc1NC(=O)N1CCOCC1`?
VDR inh: -15.2%

What do the screens show for `CCC1(c2ccccc2)NC(=O)N(CC(=O)Nc2ccc(S(=O)(=O)Nc3ncccn3)cc2)C1=O` (stereo not given)?
VDR inh: -11.4%

What do the screens show for `O=C(C1=C(O)C(=O)N(c2ncccn2)C1c1cccs1)c1ccco1` (stereo not given)?
VDR inh: 5.0%

Results for CCOC(=O)c1sc2ccccc2c1S(=O)(=O)N1CCN(c2cccc(C)c2)C(C)C1 (stereo not given) ?
VDR inh: 3.2%

Results for CN(C)S(=O)(=O)c1ccc(C(=O)OCC(=O)Nc2cccnc2Cl)cc1 ?
VDR inh: 0.0%

Results for Cc1ccc(NC(=O)NN2CCOCC2)cc1 ?
VDR inh: -8.9%

Results for CC1CC1C(=O)OCC(=O)Nc1ccc(S(=O)(=O)N2CCOCC2)cc1 (stereo not given) ?
VDR inh: 2.3%

How did CCCCCn1c(=O)[nH]c2cc(C(=O)Nc3cc(C)cc(C)c3)ccc2c1=O do in these assays?
VDR inh: -6.2%

Results for COc1ccc(CNC(=O)Cn2nc(-c3ccc4c(c3)OCCO4)ccc2=O)cc1 ?
VDR inh: -1.2%

Results for CCOC(=O)/C=c1\s/c(=C\c2ccc(C(F)(F)F)cc2)c(=O)n1CC(=O)NCc1ccco1 ?
VDR inh: 4.6%

Results for Cc1cc(=O)[nH]c(-c2cccnc2)n1 ?
VDR inh: -3.7%

What do the screens show for `O=C1N(Cc2ccccc2)c2ccccc2C12OCCO2`?
VDR inh: -5.3%

How did COC(=O)C1=C(SC)N(c2ccccc2)C(c2ccccc2)CC1=O (stereo not given) do in these assays?
VDR inh: -29.5%

How did CC1CCCN(Cc2c(O)ccc3c4c(c(=O)oc23)CCCC4)C1 (stereo not given) do in these assays?
VDR inh: -19.7%

How did Cc1cc(C)n(CC(=O)N2CCCC(N3CCN(c4ccccc4C)CC3)C2)n1 (stereo not given) do in these assays?
VDR inh: 19.6%

What do the screens show for `CCc1nn(CC(=O)NCCc2ccc(Cl)cc2)c(=O)c2cc3c(OC)cccc3n12`?
VDR inh: 17.9%

How did O=C(NCCO)C(=O)Nc1cc2c3c(c1)CC(=O)N3CCC2 do in these assays?
VDR inh: -13.0%

How did CCc1ccc(NC(=O)C2CCN(c3cc(C)nc4c(-c5ccc(Cl)cc5)c(C)nn34)CC2)cc1 do in these assays?
VDR inh: inconclusive

What do the screens show for `C/C(=N\NC(=O)Cn1nc(C)c([N+](=O)[O-])c1C)c1ccc(O)cc1`?
VDR inh: -16.6%

What do the screens show for `COC(=O)CCNC(=O)CCc1ccc(S(=O)(=O)N2CCCCCC2)cc1`?
VDR inh: 2.2%

How did CCn1c2ccccc2c2nnc(SCC(=O)NC3CCS(=O)(=O)C3)nc21 (stereo not given) do in these assays?
VDR inh: -12.4%

What do the screens show for `COc1cc(NC(=O)c2nnn(CC(=O)Nc3ccccc3)c2N)cc(OC)c1`?
VDR inh: 16.1%

What do the screens show for `COc1cc(OC)cc(C(=O)O/N=C(\N)c2ccccn2)c1`?
VDR inh: -16.1%

How did Cc1ccc(C(C)C)c(OCC(=O)N/N=C/c2ccc(S(=O)(=O)O)o2)c1 do in these assays?
VDR inh: -0.2%

How did COC(=O)c1ccc(C)c(NC(=O)c2nn(C)c(=O)c3ccccc23)c1 do in these assays?
VDR inh: 8.4%

How did N#Cc1ccsc1NC(=O)c1cnccn1 do in these assays?
VDR inh: 25.1%

How did CC(=O)Nc1ccc(NC(=O)C/C(C)=N/NC(=O)C(=O)N2CCCC2)cc1 do in these assays?
VDR inh: -9.9%

Results for CCOC(=O)c1ccc(NC(=O)C2CCCN(c3cnccn3)C2)cc1 (stereo not given) ?
VDR inh: -3.1%&11.4%

How did O=C1CC[C@@H](CN(Cc2ccccn2)Cc2nc(-c3ccc(C(F)(F)F)cc3)no2)N1 do in these assays?
VDR inh: -13.2%

How did O=C(CCn1ccc2cc(S(=O)(=O)N3CCCC3)ccc21)NCc1ccccc1 do in these assays?
VDR inh: 2.2%

How did O=C(CSC1=Nc2ccccc2N=C(c2ccc(F)cc2)C1)Nc1cccc(C(F)(F)F)c1 do in these assays?
VDR inh: 3.0%

Results for COc1ccc(NC(=O)c2ccccc2[N+](=O)[O-])cc1OC ?
VDR inh: -20.3%

What do the screens show for `COc1ccc(OCCCC(=O)Nc2cccc(S(=O)(=O)N3CCCCCC3)c2)cc1`?
VDR inh: -11.9%

How did Cc1c(C)c2c(OCC(=O)NCC(C)C)cc3c(c2oc1=O)CCC(C)(C)O3 do in these assays?
VDR inh: -11.3%

Results for COc1ccccc1N1CCN(S(=O)(=O)c2ccc(-c3cnc(C4CC4)o3)cc2)CC1 ?
VDR inh: -4.6%&12.5%

Results for Cc1ccc(-c2csc(NCCn3c(-c4ccncc4)nc4cc(C(F)(F)F)ccc43)n2)cc1 ?
VDR inh: -27.3%

What do the screens show for `O=C(CCS(=O)(=O)c1cccc2nsnc12)N1CCN(c2ccccc2F)CC1`?
VDR inh: -3.8%

How did Cn1nc(-c2ccccc2)c(-c2ccccc2)c(C(=O)Nc2ccc(S(N)(=O)=O)cc2)c1=O do in these assays?
VDR inh: 10.5%

What do the screens show for `O=C(NCc1nnc(SCC(=O)N2CCN(c3ccccc3)CC2)o1)c1c(F)cccc1F`?
VDR inh: -1.5%

How did C/C(=N/NC(=O)CNC(=O)COc1cccc(C)c1)c1ccco1 do in these assays?
VDR inh: -0.3%

What do the screens show for `O=[N+]([O-])c1ccc(CSC2=NCCN2)cc1`?
VDR inh: -5.8%

Results for N#C/C(=C\c1ccc(O)c(O)c1)C(=O)NCCc1ccccc1 ?
VDR inh: inconclusive

Results for O=c1[nH]c(-c2ccccc2)ncc1OCc1ccccc1 ?
VDR inh: -13.2%

What do the screens show for `O=C(COC(=O)c1cnccn1)c1ccc([N+](=O)[O-])cc1`?
VDR inh: inconclusive

What do the screens show for `NCCC[C@@H](CC(=O)N[C@@H]1CCNC[C@H]1C(=O)N[C@H](CC(=O)N[C@@H](CCC(=O)O)CC(=O)O)Cc1ccccc1)NC(=O)C[C@H](Cc1c[nH]c2ccccc12)NC(=O)[C@@H]1CNCC[C@H]1N`?
VDR inh: 7.3%

Results for Cc1cc([N+](=O)[O-])nn1Cc1ccccc1F ?
VDR inh: -2.5%

How did Cc1cc(C)c(OCCCCN2CCC(C)CC2)c(Br)c1 do in these assays?
VDR inh: 7.2%

How did c1ccc(OCCCn2nnc(-c3cccnc3)n2)cc1 do in these assays?
VDR inh: -1.6%

Results for CCC(=O)NC(=S)Nc1ccccc1OC ?
VDR inh: -15.8%

What do the screens show for `Cc1ccc(NC(=O)COC(=O)CCC(=O)c2cccs2)cc1C`?
VDR inh: 2.1%

How did O=C(CN(CC1CCCO1)C(=O)CNS(=O)(=O)c1ccc(Cl)cc1)NC1CCCCC1 (stereo not given) do in these assays?
VDR inh: 0.3%

What do the screens show for `c1coc(Cn2c(SCc3nc4ccccc4[nH]3)nnc2-c2cccs2)c1`?
VDR inh: 12.0%

What do the screens show for `COc1ccc(C(C)=O)cc1CN1C(=O)C(C)N(c2ccc(C)cc2)C1=O` (stereo not given)?
VDR inh: 2.1%

What do the screens show for `COc1ccc(-c2[nH]ncc2C(=O)NCc2ccc(F)cc2)cc1`?
VDR inh: -0.2%

How did CN(C)c1ccc(S(=O)(=O)NCC(=O)NCc2ccccc2)cc1[N+](=O)[O-] do in these assays?
VDR inh: inconclusive

Results for CC(=O)C1=C(O)C(=O)N(CCN2CCOCC2)C1c1ccccc1 (stereo not given) ?
VDR inh: 26.5%

What do the screens show for `Cc1cc(NS(=O)(=O)c2ccc(NC(=O)c3ccc(Cl)cc3Cl)cc2)no1`?
VDR inh: -1.7%

Results for COc1ccc(S(=O)(=O)N2CCCCC2)cc1C(=O)Nc1cc(C)on1 ?
VDR inh: -9.7%

Results for O=C(Nc1ccc(F)cc1)C(=O)C1C(=O)Nc2ccccc21 (stereo not given) ?
VDR inh: 8.1%

Results for CCC(C)(C)NC(=O)C(c1cccs1)N(C(=O)c1ccn[nH]1)c1ccccc1 (stereo not given) ?
VDR inh: -16.7%

Results for O=C(Nc1nc(-c2ccc(Cl)cc2)cs1)c1cccnc1 ?
VDR inh: -18.6%

Results for Cn1nnc2c(N3CCN(c4ccccc4Cl)CC3)ncnc21 ?
VDR inh: 8.9%

What do the screens show for `O=C(NCc1cccnc1)c1ccccc1NS(=O)(=O)c1ccc(F)cc1F`?
VDR inh: 2.9%

Seven entries drawn at random from the list so far, as already listed:
What do the screens show for `Cc1cc(NS(=O)(=O)c2ccc(NC(=O)c3ccc(Cl)cc3Cl)cc2)no1`?
VDR inh: -1.7%

Results for O=C(Nc1nc(-c2ccc(Cl)cc2)cs1)c1cccnc1 ?
VDR inh: -18.6%

Results for O=C(Nc1ccc(F)cc1)C(=O)C1C(=O)Nc2ccccc21 (stereo not given) ?
VDR inh: 8.1%

What do the screens show for `c1coc(Cn2c(SCc3nc4ccccc4[nH]3)nnc2-c2cccs2)c1`?
VDR inh: 12.0%

Results for COc1ccc(S(=O)(=O)N2CCCCC2)cc1C(=O)Nc1cc(C)on1 ?
VDR inh: -9.7%

What do the screens show for `O=C(NCc1cccnc1)c1ccccc1NS(=O)(=O)c1ccc(F)cc1F`?
VDR inh: 2.9%

What do the screens show for `COc1ccc(-c2[nH]ncc2C(=O)NCc2ccc(F)cc2)cc1`?
VDR inh: -0.2%

Continuation:
Results for CCc1nn(CC(=O)NCCOC)c(=O)c2cc3cc(F)ccc3n12 ?
VDR inh: 5.7%

How did COc1ccccc1NC(=O)COC(=O)c1cc([N+](=O)[O-])ccc1N1CCCC1 do in these assays?
VDR inh: -2.6%

What do the screens show for `CO[C@H]1[C@H](O[C@H]2O[C@@H](C)[C@@H](O[C@@H]3C[C@](C)(O)[C@H](O)[C@H](C)O3)[C@@H](N(C)C)[C@@H]2O)[C@@H](CC=O)C[C@@H](C)[C@@H](O[C@H]2CC[C@H](N(C)C)[C@H](C)O2)/C=C\C=C/C[C@@H](C)OC(=O)C[C@H]1O`?
VDR inh: 14.7%

Results for Cc1ccc(-c2nc(S(=O)(=O)c3ccccc3)c(N3CCN(c4ccccc4)CC3)o2)cc1 ?
VDR inh: -0.8%

How did Cc1ccc(/C=C/c2onc(C)c2S(=O)(=O)N2CCC(C(=O)Nc3ccc(C)c(N(C)C)c3)CC2)cc1 do in these assays?
VDR inh: 15.3%

How did Fc1ccccc1CNC(=S)NCc1ccc(Cl)cc1 do in these assays?
VDR inh: 5.3%

How did O=C1OC(c2ccccc2)=C/C1=C\N1CCOCC1 do in these assays?
VDR inh: 87.4%[activator]

How did COc1ccc(CC(C)N2CCN(c3ccccc3)CC2)cc1OC (stereo not given) do in these assays?
VDR inh: 3.3%

What do the screens show for `COc1cc(OC)c(NC(=O)Cc2cccs2)cc1Cl`?
VDR inh: -0.8%

What do the screens show for `CCOc1ccc(C(=O)NCC(=O)OCC(=O)Nc2cccc(S(=O)(=O)N3CCCC3)c2)cc1`?
VDR inh: -9.7%

Results for O=C(Cc1ccc(Cl)c(Cl)c1)N/N=C/c1cccnc1 ?
VDR inh: 18.3%

Results for C=CCn1c(SCC(=O)Nc2nccs2)nnc1-c1cc2cccc(OC)c2o1 ?
VDR inh: 2.0%

How did N#Cc1c(F)cccc1N1CCN(Cc2ccc3c(c2)OCO3)CC1 do in these assays?
VDR inh: -1.0%

What do the screens show for `CN1CCN(c2nc3c(c(=O)[nH]c(=O)n3C)n2Cc2ccccc2F)CC1`?
VDR inh: -8.6%

What do the screens show for `C/C=C(\C)C(=O)Nc1cccc(C2=NOC3(C2)C[C@@H](C(N)=O)N(C(=O)c2ccccc2C(=O)c2ccccc2)C3)c1` (stereo not given in full)?
VDR inh: 1.4%

How did CN1CCN(C(=O)c2ccc(Cl)cc2)CC1 do in these assays?
VDR inh: -10.6%

What do the screens show for `CCOc1cccc(C(=O)NC(=S)Nc2cccc(NC(=O)c3ccccc3Cl)c2)c1`?
VDR inh: -0.8%

What do the screens show for `COc1cc(OC)cc(C(=O)Nc2ccc(NC(=O)c3ccco3)c(Cl)c2)c1`?
VDR inh: -4.3%

What do the screens show for `CC(OCC(O)CNCC1COc2ccccc2O1)c1ccc(Cl)cc1` (stereo not given)?
VDR inh: -24.6%

What do the screens show for `COCC(C)n1c(C)cc(C(=O)COC(=O)c2cnc(Cl)c(Cl)c2)c1C` (stereo not given)?
VDR inh: -8.1%

How did Cc1cccc(C)c1NC(=O)c1nc(SC(C)C)ncc1Cl do in these assays?
VDR inh: 4.8%

What do the screens show for `O=c1cc(CNc2cc(Cl)ccc2Cl)nc2sccn12`?
VDR inh: -7.7%

How did Cc1ccc(N(C(=O)c2ccccc2Cl)C2=NC(C)CS2)c(C)c1 (stereo not given) do in these assays?
VDR inh: -5.9%

How did CCCCn1nc(C(=O)Nc2ccccc2N2CCCC2)c2ccccc2c1=O do in these assays?
VDR inh: 9.9%

From PubChem

The list is partial; rates above refer to the full screens.
